HNF4A DNA FP – change in binding of human HNF4A to DNA, primary screen, biochemical, fluorescence polarization, FITC-DNA; Hepatocyte nuclear factor 4-alpha (Homo sapiens), P41235; 1 h; activity change, % at 10 µM; 0.3% of 360,000 active; in the data active = activity change above about 30%, passing the limit was not always enough;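 also: controls were the assay level and a saturating level of protein; the project sought stronger binding though the title names inhibitors; some compounds called inactive have numbers as strong as hits; positive values seem to mean higher polarization but the record does not say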
Target sequence (P41235 whole entry, looked up): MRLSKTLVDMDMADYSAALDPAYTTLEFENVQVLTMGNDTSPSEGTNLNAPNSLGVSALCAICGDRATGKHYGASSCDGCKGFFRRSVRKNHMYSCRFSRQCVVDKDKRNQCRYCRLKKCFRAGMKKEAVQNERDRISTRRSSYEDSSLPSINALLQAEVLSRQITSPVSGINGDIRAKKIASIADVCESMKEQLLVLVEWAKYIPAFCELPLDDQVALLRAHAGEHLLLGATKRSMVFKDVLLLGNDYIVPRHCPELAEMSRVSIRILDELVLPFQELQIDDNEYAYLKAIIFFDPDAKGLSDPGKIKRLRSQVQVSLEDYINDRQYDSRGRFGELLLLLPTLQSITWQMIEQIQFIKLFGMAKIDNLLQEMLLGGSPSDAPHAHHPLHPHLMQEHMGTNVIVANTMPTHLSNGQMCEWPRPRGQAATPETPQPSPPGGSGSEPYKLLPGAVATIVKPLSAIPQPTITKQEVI
E coli growth – E. coli growth inhibition, primary screen, OD600; Escherichia coli growth, 23 h; hits give low values; OD600 absorbance (no concentration beside the values); 0.21% of 330,000 active; AID 1053175, 2014;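 active = OD600 absorbance below the run mean of sample wells minus 3.6 SD, in any replicate, cut at about 0.56 in these data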;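 also: stock transfer was 300 nL into about 60 µL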
LANA-H2A inh – blockers of LANA interaction with H2A/H2B – biochemical, FP readout, HTS, primary screen; Protein LANA1 (Human herpesvirus 8 type P (isolate GK18)), Q9QR71; cell-free LANA-H2A/H2B peptide, fluorescence polarization; inhibition, % (concentration not given with the values); 0.6% of 320,000 active; in the data active = inhibition mostly above about 10%, no sharp cut-off; inactive = mostly below about 6.7%;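 also: stock transfer was 7.5 nL into about 10 µL; 0% = median of vehicle wells and 100% = median of positive control wells; one replicate is shown; the record names a cut of 25% in any replicate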
UCH37 DUB inh – inhibitors of human UCH37 deubiquitinase, primary screen, biochemical, Ub-AMC cleavage, fluorescence; Ubiquitin carboxyl-terminal hydrolase isozyme L5 (Homo sapiens), Q9Y5K5; purified proteasome/UCH37; inhibition, % (concentration not given with the values); 0.33% of 330,000 active; AID 588478, 2011;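 active = mean of two replicates above 20%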;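 also: 0% = compound-free wells with enzyme and 100% = wells lacking proteasome; stock transfer was 100 nL into about 20 µL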
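Material: human UCH37 enzyme supplied as purified proteasome complex. Measure: % inhibition of Ub-AMC cleavage fluorescence. Medium: pH 7.4 Tris-HCl (50 mM) with ovalbumin, ATP-MgCl2, DTT. Times: 30 min preincubation with enzyme, 25 min cleavage at room temperature. Detection: AMC fluorescence intensity at 355/460 nm.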
B2AR ag – beta2AR agonists driving receptor internalization, primary screen, cell-based, FAP fluorogen, flow cytometry; Beta-2 adrenergic receptor (Homo sapiens), P07550; Am2.2-beta2AR cells; reference of the scale not given here; response, % (no concentration beside the values); 0.43% of 340,000 active;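 active = response above a set limit, near 3 SD of response in nonfluorescent compounds, cut at about 42% in these data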;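 also: stock transfer was 100 nL into about 11 µL; a reference agonist was the positive control; negative values mostly stem from fluorescent compounds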
Target sequence (P07550 whole entry, looked up): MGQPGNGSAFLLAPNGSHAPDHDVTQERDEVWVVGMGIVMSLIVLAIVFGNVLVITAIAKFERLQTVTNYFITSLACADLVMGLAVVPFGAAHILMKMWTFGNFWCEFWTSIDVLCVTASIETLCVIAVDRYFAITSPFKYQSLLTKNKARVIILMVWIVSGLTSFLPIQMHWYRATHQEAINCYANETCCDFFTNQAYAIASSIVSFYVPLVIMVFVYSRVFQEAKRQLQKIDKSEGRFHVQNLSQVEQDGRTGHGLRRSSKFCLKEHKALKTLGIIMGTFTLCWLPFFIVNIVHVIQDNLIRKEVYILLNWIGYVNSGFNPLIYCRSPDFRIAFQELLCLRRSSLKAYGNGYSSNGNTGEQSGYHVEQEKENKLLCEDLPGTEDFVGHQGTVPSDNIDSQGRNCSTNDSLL
A1 inh – caspase 3/7 activation in MEF A1-2A-BIM cells, primary screen, A1 inhibitor project, cell-based, luminescence, HTS; caspase activation, % (no concentration beside the values); Caspase-Glo 3/7 luminescence, 3 h; percent of clofoctol response, vehicle zero; 0.066% of 330,000 active;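 active = over half of replicate activation scores above 10%, or exactly half above 10 with the replicate mean above 10; inconclusive = replicate mean below 10 yet half the replicates above 10; inactive = over half of replicates below 10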;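 also: wells of about 30 µL received 50 nL stock; many hits fall short of the cut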
Vif TR-FRET – inhibitors of Vif binding to APOBEC3G peptide, primary screen, biochemical, TR-FRET, GST-Vif 1-94, biotin-A3G peptide, dose response retest (AID 1117319); Virion infectivity factor (Human immunodeficiency virus type 1 group M subtype B (isolate …; TR-FRET GST-Vif / biotin-A3G peptide binding; higher % means a stronger effect; test concentration not given here; strong numbers were not always called active; inhibition, %, or IC50 in µM where a hit was titrated; 0.57% of 260,000 active;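 active = above the screen mean plus three standard deviations and confirmed in dose response; inconclusive = results disagree or hit not tested in dose response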;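 also: Vif residues 1-94 fused to GST binding biotinylated APOBEC3G peptide 110-148; 0% = full assay without inhibitor and 100% = GST in place of GST-Vif; retest series ran down from 100 µM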
* hit, by the source's call; i = inactive; ? = inconclusive; . = not tested or not shown.

SMILES	HNF4A DNA FP	E coli growth	LANA-H2A inh	UCH37 DUB inh	B2AR ag	A1 inh	Vif TR-FRET
Nc1ccc(N=Nc2ccccc2O)c(N)c1	3.3	0.59	-2.7	10	-1	-2.3	.
Cc1nn(-c2ccccc2)c(N2CCCC2)c1/C=N/Nc1ccc(S(N)(=O)=O)cc1[N+](=O)[O-]	-0.4	.	4.4	.	-3	-0.5	13%
O=C(O)c1cc(-c2ccc(/C=N/N3C(=O)C4C5C=CC(CC5)C4C3=O)o2)ccc1Cl (stereo not drawn)	-2.0	.	-6.8	.	-1	0.1	.
Cc1ccsc1-c1nc(C(N)=O)c2[nH]c(=O)n(-c3ccc(Cl)cc3)c2n1	5.2	.	-2.1	.	16	-0.3	?
Cc1cccc(OCc2nnc(SC(C)C(=O)O)n2Cc2ccccc2)c1 (stereo not drawn)	-1.9	0.67	3.2	-1.1	12	-0.6	.
Cc1ccc(C(=O)c2c3ccc([N+](=O)[O-])cc3[n+]([O-])n2CCCN)cc1	5.4	.	0.2	6.5	-4	0.1	.
CC1CCN(S(=O)(=O)c2ccc(Br)s2)CC1	6.8	0.66	4.9	3.1	2	1.3	2%
O=C(CN1CCOCC1)Nc1scc2c1c(=O)oc1ccccc12	0.7	0.67	1.3	-0.1	-5	-0.1	?
COc1ccc(OC)c(C2C(C(C)=O)=C(C)Nc3ncnn32)c1 (stereo not drawn)	-2.1	0.64	-1.7	6.9	-1	0.0	-7%
Cn1cc([N+](=O)[O-])c(C(=O)Nc2ccc3nc(-c4ccccc4)[nH]c3c2)n1	1.6	0.64	-4.8	-22	6	0.1	30%
O=c1c(C(c2ccc(F)cc2)c2c(O)nc3n(c2=O)CCCS3)c(O)nc2n1CCCS2	-8.1	0.66	-4.2	4.8	0	-0.1	-2%
CC(=O)N1N=C(c2ccccc2O)CC1c1cccs1 (stereo not drawn)	-2.0	0.7	4.7	-8.4	4	-1.2	-6%
CCOC(=O)CCc1nc2ccccc2[nH]c1=O	-1.6	0.71	1.3	-46	0	1.1	-2%
CN1C(=O)CC(c2cn(Cc3ccccc3)c3ccccc23)C1=O (stereo not drawn)	18	0.66	-5.7	4.0	9	0.0	?
CCS(=O)(=O)N1CCC(C(=O)NCc2cccnc2)CC1	-2.2	0.7	1.2	-0.5	-4	-0.9	4%
Oc1ccc(/C=N/N2CCN(C3c4ccccc4-c4ccccc43)CC2)cc1	-2.0	.	-1.3	.	-6	-0.4	1%
CC(=O)c1c(C)[nH]c(C(=O)CSc2nnc3ccccn23)c1C	1.9	0.68	0.0	4.8	1	0.7	2%
Cc1ccc2[nH]c(=O)c(CN(CCCN3CCOCC3)C(=O)Nc3cccc(Cl)c3)cc2c1	2.9	.	2.1	3.5	2	0.2	9%
CCCN1CCN(CCCNC(=S)Nc2ccc3nc(N4CCN(CC)CC4)cc(C)c3c2)CC1	3.5	0.69	-2.4	-15	18	0.3	12%
COC(=O)c1c(C)[nH]c(-c2csc(N)n2)c1C	7.1	0.65	1.8	-2.0	-1	0.0	9%
CCN(CC)S(=O)(=O)c1ccc2c(c1)N(CC(=O)N(CCc1ccncc1)C(C)C)C(=O)CO2	1.1	0.67	-3.9	0.2	-8	0.8	.
O=C(O)c1sccc1Oc1ccc(NS(=O)(=O)c2ccc(Cl)cc2)cc1	-0.4	0.69	-2.1	5.4	4	?	-2%
Cc1ccccc1CNC(=O)CCc1ccccc1	-1.3	0.71	-2.8	2.5	-7	0.0	14%
CCOc1cc(N2CCOCC2)c(OCC)cc1NC(=O)c1c(-c2ccccc2Cl)noc1C	4.7	0.72	0.3	3.9	-2	0.5	-1%
Cc1c(NC(=O)c2cc(=O)[nH]c3ccccc23)c(=O)n(-c2ccccc2)n1C	2.3	0.68	1.1	3.6	1	0.2	-2%
CCOc1ccc(CCNC(=O)COC(=O)c2cc(OC)cc(OC)c2)cc1OCC	-1.6	0.7	-3.4	-0.3	-7	0.1	2%
COc1cccc(NC(=O)CCN2CCN(C)CC2)c1	-1.0	0.69	-0.3	1.8	-2	0.5	3%
CCOc1ccc(NC(=O)c2ccc(CNc3c(N4CCCC4)c(=O)c3=O)cc2)cc1	5.2	0.7	-5.4	6.6	-9	-0.8	?
Cc1ccc(C(=O)N/C(=C\c2ccco2)C(=O)NCC2CCCO2)cc1C (stereo not drawn)	-0.3	.	0.2	-0.9	5	-0.1	-1%
O=C(NCCCn1ccnc1)C(=O)NCc1ccccc1	-3.7	0.68	-2.6	-0.8	1	0.7	4%
O=C(CCC(=O)c1cccs1)OCC(=O)N1CCN(S(=O)(=O)c2ccccc2)CC1	0.1	0.73	3.6	4.1	-7	-0.9	-8%
NCCCC[C@@H](C(=O)NCCCCCCCCCCC(=O)N1CCNCC1)n1cc(CCO)nn1	-0.2	.	-1.7	0.8	-3	0.4	.
Cc1oc(CC(C)C)cc1C(=O)Nc1ccc(C(=O)O)cc1	0.1	0.74	-0.2	5.7	-1	-0.5	3%
CNC(=S)N/N=C/c1c(Cl)cccc1Cl	-4.2	.	-0.5	.	-6	-0.2	.
COc1ccc(OCC(=O)NNC(=O)c2ccc(-c3ccccc3)cc2)cc1	-3.3	0.71	-3.1	3.9	-4	-0.7	2%
Cc1cc(C)nc(NC(=O)C(c2ccccc2)c2ccccc2)c1	2.9	0.73	-0.9	1.5	5	0.4	.
Cc1ccc(Cl)c(OCC(=O)OC(C)C(=O)NC2CC2)c1 (stereo not drawn)	0.7	0.7	-1.3	-1.2	3	0.1	0%
Cc1cc(N2CCCCC2)nc2ccccc12	-2.2	0.68	-3.7	-20	2	-0.2	-9%
CCOC(=O)c1sc(=S)sc1SCc1cccc(C(F)(F)F)c1	-1.1	.	5.4	2.4	-3	0.3	24%
O=C(Nc1ccccc1)N1CCCN(c2ccc(C(F)(F)F)cc2[N+](=O)[O-])CC1	1.6	0.71	-0.5	3.1	-11	-3.4	-2%

No new results follow: an excerpt of the list.
SMILES	HNF4A DNA FP	E coli growth	LANA-H2A inh	UCH37 DUB inh	B2AR ag	A1 inh	Vif TR-FRET
Cc1ccccc1CNC(=O)CCc1ccccc1	-1.3	0.71	-2.8	2.5	-7	0.0	14%
CCOc1cc(N2CCOCC2)c(OCC)cc1NC(=O)c1c(-c2ccccc2Cl)noc1C	4.7	0.72	0.3	3.9	-2	0.5	-1%

Laid out differently: entries from further up
Every second line gives: HNF4A DNA FP	E coli growth	LANA-H2A inh	UCH37 DUB inh	B2AR ag	A1 inh	Vif TR-FRET
CCN(CC)S(=O)(=O)c1ccc2c(c1)N(CC(=O)N(CCc1ccncc1)C(C)C)C(=O)CO2
  1.1	0.67	-3.9	0.2	-8	0.8	.
O=C(O)c1sccc1Oc1ccc(NS(=O)(=O)c2ccc(Cl)cc2)cc1
  -0.4	0.69	-2.1	5.4	4	?	-2%

The list goes on.
SMILES	HNF4A DNA FP	E coli growth	LANA-H2A inh	UCH37 DUB inh	B2AR ag	A1 inh	Vif TR-FRET
COc1ccc(-c2c(C#N)c(N)nc3c2c(=O)n(C)c(=O)n3C)cc1Cl	2.2	0.71	6.2	-0.4	2	-0.2	.
O=C(Nc1ccc(-c2csc(Nc3cccc(C(F)(F)F)c3)n2)cc1)c1cc([N+](=O)[O-])cc(C(F)(F)F)c1	-2.2	0.69	-3.3	-0.1	0	-0.8	.
CCOc1ccc(NC(=O)NC2(C(=O)NCc3ccco3)CCCCC2)cc1	-0.5	0.71	-4.4	0.4	12	0.1	.
Cc1cc(C)nc(Nc2ccc(Br)cc2C(=O)O)n1	3.8	0.72	-3.3	-2.8	12	-1.0	-6%
CC1CCCCC1NC(=O)CSc1nnc(COc2ccc(Cl)cc2)o1 (stereo not drawn)	-1.1	0.65	-1.1	3.1	-9	0.3	3%
CNC(=O)C(=O)N/N=C/c1ccccn1	-0.8	.	4.1	.	3	0.1	-5%
CCN(CC)S(=O)(=O)c1ccc2[nH]c(=O)cc(C(=O)NCc3ccccc3)c2c1	0.1	0.72	-1.1	-11	0	1.5	.
COc1ccc2[nH]cc(/C=C/c3cc[n+](C)cc3)c2c1	52*	0.63	-84	17	-110	0.7	-5%
C=CCNC(=O)CSc1nnc(C(CC)N(C)C)n1C1CCCCC1 (stereo not drawn)	2.2	0.7	2.9	1.0	-6	0.6	.
Cc1cc(C)c(S(=O)(=O)NCc2cn3ccccc3n2)c(C)c1	0.4	0.68	-0.5	1.9	5	-0.4	.
COc1ccc(/C=C\C(=O)NCC(=O)N/N=C/c2ccc(O)cc2O)cc1	-2.1	.	-0.1	.	10	-0.8	10%
CC(CN1CCCCC1)OC(=O)COc1ccc(Cl)cc1 (stereo not drawn)	-2.3	0.64	-0.4	4.3	0	0.5	4%
COc1ccc(/C=N/NC(=O)c2ccc3c(c2)OCO3)c(C(=O)O)c1OC	-0.6	.	-1.2	.	-3	-0.7	.
Cc1cc(NC(=O)CCN2C(=O)C3C4CCC(C4)C3C2=O)cc(C)c1Br (stereo not drawn)	3.2	0.67	2.9	-0.7	0	0.0	-2%
O=C(Nc1nc2ccccc2[nH]1)Nc1ccccc1F	-2.8	0.65	-1.1	4.5	-8	-2.6	.
Cc1cc(C)cc(-c2nnc(SCc3ccc(C(=O)O)cc3)o2)c1	-2.8	0.72	2.9	2.9	3	-0.9	.
NS(=O)(=O)c1ccc(CCNC(=O)CN2CCN(Cc3cccc(C(F)(F)F)c3)CC2)cc1	-0.1	0.66	3.8	1.7	3	-0.4	0%
CCOC(=O)C1CCCN(C(=O)c2ccc3c(=O)n(Cc4ccccc4OC)c(=S)[nH]c3c2)C1 (stereo not drawn)	6.8	0.68	2.1	1.2	10	-3.0	.
Cc1ccc(C(=O)NCCc2ccccc2)cc1S(=O)(=O)N1CCOCC1	-2.1	0.7	i	0.3	0	2.1	4%
COc1n[nH]c2nncnc12	-4.0	0.68	-0.5	1.3	3	0.2	-9%
COc1ccc2nc(C)cc(C(=O)O)c2c1	6.2	0.75	-5.2	-62	-5	0.0	?
COC(=O)C1=C(C)NC(=O)CC1c1cc(Br)ccc1F (stereo not drawn)	0.2	0.71	-2.7	5.2	10	-0.3	-1%
COc1ccccc1CNC(=O)CCNS(=O)(=O)c1ccc2c(c1)CC(C)N2C(C)=O (stereo not drawn)	-0.2	0.68	2.9	4.6	0	1.2	2%
CC(C)CN(C(=O)CN(C)C(=O)Cc1ccccc1Cl)c1c(N)n(CC(C)C)c(=O)[nH]c1=O	-0.6	0.72	-4.2	-0.9	-1	-0.1	.
Cc1ccc(NC(=O)c2ccc3c(c2)OCCO3)cc1C	3.1	0.64	-1.2	5.8	16	0.0	.
CCn1c2ccccc2c2nnc(SCC(=O)Nc3ccc4c(c3)OCO4)nc21	1.3	0.7	1.6	0.3	4	0.6	4%
CCOc1ccc(-c2nnc(N)s2)cc1	0.6	0.67	4.0	-3.5	-5	-1.0	-3%
Cc1cc(C)c(S(=O)(=O)NC2CC(C)(C)NC(C)(C)C2)cc1C	1.4	.	0.8	.	1	-0.2	?
Cn1c(-c2ccccc2)cnc1SCC(N)=O	0.1	0.65	3.2	3.9	0	-0.4	3%
Cc1cc(SCC(=O)c2ccccc2)nc(SCC(=O)c2ccccc2)n1	-2.0	0.73	1.6	-0.2	0	-1.0	4%
O=C(c1ccc(Cl)c([N+](=O)[O-])c1)N1CCCc2ccccc21	6.6	0.65	-3.0	1.0	6	-0.1	-7%
COCCNC(=O)C(c1ccc(C)o1)N(Cc1cccs1)C(=O)c1snc(C(N)=O)c1N (stereo not drawn)	-1.7	0.68	-3.1	-40	18	-1.0	?

Rows are unselected; 2.1% or so of the library scored in one or more.
